Assay outcomes: PubChem, several laboratories
GALR2 agonist = activates the human galanin receptor 2; O43603; GALR2-expressing cells, agonist activation read-out; activation, %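 (tested at 5 µM)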; 140,000 compounds, 0.48% hits; AID 803;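 active = above mean plus 3 SD of all compounds, about 5% in these data, not always enough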;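 note: 0% = vehicle buffer wells and 100% = reference agonist at full effect; tested in CHO reporter cells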
Target sequence (O43603 whole entry, looked up): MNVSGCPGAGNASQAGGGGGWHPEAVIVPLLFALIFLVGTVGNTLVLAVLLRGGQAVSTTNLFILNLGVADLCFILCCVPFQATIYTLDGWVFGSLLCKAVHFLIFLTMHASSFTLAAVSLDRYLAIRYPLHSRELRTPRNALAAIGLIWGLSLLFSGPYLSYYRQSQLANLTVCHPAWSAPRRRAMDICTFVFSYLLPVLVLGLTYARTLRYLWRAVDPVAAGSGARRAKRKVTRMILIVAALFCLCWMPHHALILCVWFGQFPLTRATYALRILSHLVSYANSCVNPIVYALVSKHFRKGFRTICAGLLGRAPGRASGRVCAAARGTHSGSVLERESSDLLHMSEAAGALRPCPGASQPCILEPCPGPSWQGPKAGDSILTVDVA
HSV replic up = increases HSV replication in cells; 220,000 compounds, 0.005% hits; maximum fold increase; HSV replication augmentation in cells, fold increase;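 active = peak rise of 1.5-fold or more in the series; tested in PC3 cells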;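 note: first round at 10 µM; read as green reporter fluorescence; hits show the peak of a series up to 25 µM; 1 = signal of infected wells without compound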
PKD1 kinase inh = PKD1 (human) kinase inhibition; Q15139; PKD1 kinase fluorescence polarization assay; inhibition, %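 (about 10 µM by stock and volumes)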; 200,000 compounds, 0.056% hits;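 active = inhibition of 50% or more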;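 note: controls were vehicle for no effect and a reference inhibitor for full effect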
Insulin prom inh = TRM-6 insulin promoter activity inhibition. inhibition, % at 2 µM. 130,000 compounds, 0.9% hits. TRM-6 cells (human fetal islet line), insulin promoter-eGFP reporter, imaging; reporter expression induced with tamoxifen. AID 1273;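 active = inhibition above the mean plus 3 SD, with well images judged a real hit on visual review, cut at about 60% in these data, passing the limit was not always enough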
RGS16-Gao HTS = modulates binding between human RGS16 and Galphao | bead-based flow cytometry RGS16-Galphao binding, fluorescence; actives lie on both sides | O15492+P09471 | binding response (% of control), % at 10 µM | 220,000 compounds, 0.38% hits;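 active = below 25% or above 175%, edge rows of some plates excepted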;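 note: Galphao activated by GDP with aluminum fluoride before binding; 100% = wells without compound and 0% = beads without RGS; some results beyond the cut were filed as inactive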
Target sequence (O15492 whole entry, looked up): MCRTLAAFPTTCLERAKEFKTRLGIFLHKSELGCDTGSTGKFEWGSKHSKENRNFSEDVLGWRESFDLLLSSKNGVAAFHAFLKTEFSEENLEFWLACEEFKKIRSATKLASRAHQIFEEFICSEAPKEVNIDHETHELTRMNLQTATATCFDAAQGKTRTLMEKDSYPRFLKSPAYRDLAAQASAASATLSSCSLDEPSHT
Target sequence (P09471 whole entry, looked up): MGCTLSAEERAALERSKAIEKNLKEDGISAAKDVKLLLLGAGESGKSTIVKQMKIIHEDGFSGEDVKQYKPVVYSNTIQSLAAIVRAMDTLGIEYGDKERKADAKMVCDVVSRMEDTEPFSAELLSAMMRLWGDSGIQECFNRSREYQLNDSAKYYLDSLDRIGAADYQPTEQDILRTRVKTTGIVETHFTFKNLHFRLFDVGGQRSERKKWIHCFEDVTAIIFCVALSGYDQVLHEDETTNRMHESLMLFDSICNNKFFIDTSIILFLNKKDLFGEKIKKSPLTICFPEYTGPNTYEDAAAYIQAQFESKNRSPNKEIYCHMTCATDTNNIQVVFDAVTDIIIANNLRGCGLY
Insulin prom inh cell count = also measured in Insulin prom inh; calls as there; normalized cell count, %; measured here: cell count, toxicity; reference of the scale not given here;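 cells exposed to compound for 48 h; stained nuclei by imaging scaled within each plate; lower means fewer cells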
HSV replic up primary fold = second read-out of HSV replic up, no call of its own (marks repeat the call); fold increase; compound at 10 µM; measured here: primary screen fold increase 10 uM; tested in PC3 cells;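 GFP signal in the first replicate; 1 = infected wells without compound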
* marks the source's active call; other numbers are inactive results; i = inactive; / = no result given.

SMILES | GALR2 agonist | HSV replic up | HSV replic up primary fold | PKD1 kinase inh | Insulin prom inh | Insulin prom inh cell count | RGS16-Gao HTS
COc1cc(OC)c(OC)cc1CN1CCN(S(=O)(=O)c2ccc(NC(C)=O)cc2)CC1 | / | i | 0.88 | -3 | / | / | 106
CCOC(=O)C1CCN(C(=O)CN(c2ccc3c(c2)OCO3)S(C)(=O)=O)CC1 | -2.1 | i | 0.99 | -1 | 12 | 87 | 100
COc1ccc(C(=O)NNC(=O)c2ccc(C(C)(C)C)cc2)cc1 | / | i | 1.1 | -2 | -41 | 141 | 98
O=C(Nc1ccc2[nH]c(=O)[nH]c2c1)Nc1ccc(F)cc1F | / | i | 1 | 1 | / | / | 103
CCOc1ccc(C(=O)OCC(=O)Nc2nc(OC)cc(OC)n2)cc1OCC | -1.9 | i | 0.89 | 4 | / | / | 99
COc1ccccc1NC(=O)COc1ccc(C(F)(F)F)cc1[N+](=O)[O-] | -2.4 | i | 0.88 | -14 | 21 | 121 | /
CCCCn1c(Cc2ccccc2)n[nH]c1=S | -1.3 | i | 0.86 | -4 | -192 | 79 | 102
Cc1cc(C)cc(CC2CC(=O)N(c3cc(C)on3)C2=O)c1 (centres undefined) | -1.9 | i | 0.89 | -3 | -6 | 185 | 101
CC1(C)Cc2ccccc2-c2nc(NCCO)n(-c3ccccc3)c(=O)c21 | -1.0 | i | 1 | -10 | / | / | 94
CCC(C)n1c(SCc2ccccc2)nc2ccsc2c1=O (centres undefined) | 1.6 | i | 1.2 | -4 | -12 | 72 | 102
COC(=O)[C@@H](NC(=O)NC1CCCCC1C)C(C)C (some centres undefined) | / | i | 0.82 | / | / | / | 101
Nc1nnc(SCC(=O)c2ccco2)s1 | -0.1 | i | 0.95 | 5 | 21 | 187 | 100
COc1ccc(-c2[nH]c(-c3ccc(SC)cc3)nc2SCC(=O)Nc2nccs2)cc1 | -0.2 | i | 0.81 | -5 | 36 | 108 | 100
O=C(/C=C/c1ccccc1)Nc1cccnc1Oc1ccccc1F | / | i | 1 | / | / | / | 99
COc1ccccc1N1CCN(S(=O)(=O)c2cnc[nH]2)CC1 | -1.9 | i | 0.99 | -2 | / | / | 106
C/C(=C/C(=O)Nc1cccc(F)c1)N1CCCC1 | / | i | 0.88 | -1 | 15 | 133 | 95
O=[N+]([O-])c1ccc(S(=O)(=O)CC(CN2CCOCC2)N2CCOCC2)cc1 (centres undefined) | / | i | 0.72 | -5 | 31 | 66 | 100
COc1ccc(CNC(=O)CCc2c(C)nc3ncnn3c2C)cc1 | -1.3 | i | 0.97 | -6 | / | / | 99
CN1CCN(C(=O)c2cnn(-c3ccccc3)c2NC(=O)c2ccccc2F)CC1 | -4.3 | i | 0.9 | 1 | / | / | 99
CCc1noc(C)c1C(=O)Nc1ncc(C)s1 | -1.0 | i | 0.86 | -2 | 10 | 126 | 106
O=C(Nc1nnc(-c2ccc(Cl)s2)o1)C1CCCCC1 | -0.5 | i | 1 | -5 | / | / | /
O=C(CSc1nnc(CNC(=O)c2ccco2)o1)c1ccc(Cl)cc1 | -1.2 | i | 1 | 1 | 8 | 186 | 102
CCCc1cc(=O)[nH]c(/N=C(\N)Nc2ccccc2)n1 | -3.4 | i | 0.88 | -6 | -20 | 62 | 99
Cc1cc(C)c(S(=O)(=O)N2CCCCCC2)cc1Br | / | i | 1.1 | -1 | / | / | 101
Cc1cccc(C)c1NC(=S)NNc1ncc(C(F)(F)F)cc1Cl | -2.4 | i | 1 | 8 | / | / | 99

Following part
SMILES | GALR2 agonist | HSV replic up | HSV replic up primary fold | PKD1 kinase inh | Insulin prom inh | Insulin prom inh cell count | RGS16-Gao HTS
Cn1c(SCC(=O)Nc2ccccc2)nc2c([nH]c3ccccc32)c1=O | / | i | 1.1 | -2 | -11 | 85 | 100
O=C(CN1C(=O)c2ccccc2C1=O)Nc1sc2c(c1C(=O)NCc1ccco1)CCCC2 | -0.9 | i | 1.1 | -6 | 92* | 30* | 96
Cc1ccc(C(=O)OCC(=O)Nc2cccc(S(=O)(=O)NC3=NCCCCC3)c2)c(C)c1 | / | i | 0.98 | -7 | 27 | 91 | 104
O=C(O)CCc1nn2c3ccccc3n(Cc3ccccc3F)c2nc1=O | / | i | 0.9 | 0 | -11 | 69 | 97
O=C(c1cc2cc([N+](=O)[O-])ccc2oc1=O)N1CCN(c2ncccn2)CC1 | -2.4 | i | 0.97 | -6 | 47 | 141 | 101
CC(Oc1ccc(F)cc1F)C(=O)/C=C/N(C)C (centres undefined) | -1.9 | i | 1.1 | 3 | / | / | 102
O=C(Cn1cnc2ccccc2c1=O)Nc1cccc(S(=O)(=O)N2CCCCC2)c1 | / | i | 0.98 | / | / | / | 99
CCCCCCn1nc(C(=O)OCC(=O)NC2CCS(=O)(=O)C2)c2ccccc2c1=O (centres undefined) | / | i | 0.89 | -7 | / | / | 99
Cc1cccc(C)c1Nc1c(-c2ccccc2O)nc2ncccn12 | / | i | 0.97 | / | / | / | 108
CNC(=O)c1cc2c(s1)-c1ccccc1CC2 | / | i | 0.98 | 6 | -15 | 47 | 102
CN1CCC(OC(c2ccccc2)c2ccccc2)CC1 | -0.8 | i | 0.86 | -9 | -45 | 79 | 39
CCOC(=O)c1[nH]c2ccc(OCC)cc2c1NC(=O)CN1CCN(c2ccccn2)CC1 | -0.6 | i | 0.81 | -10 | / | / | 98
Cc1noc(C)c1S(=O)(=O)N1CCN(c2ccccc2)CC1 | -1.0 | i | 1 | 2 | / | / | 101
CC(=O)N1N=C(c2ccncc2)OC12CCCCCC2 | 0.2 | i | 0.69 | -6 | 47 | 118 | 102
Cn1nccc1C(=O)Nc1ccc(Cl)cc1 | -1.2 | i | 0.74 | 2 | -20 | 168 | 96
CCCCN(CCCC)S(=O)(=O)c1ccc(NC(=O)c2cccs2)cc1 | 0.1 | i | 0.76 | -7 | 49 | 77 | 100
Cn1c(SCC(=O)c2ccc(F)cc2)nnc1-c1cccnc1 | / | i | 0.98 | 4 | 33 | 130 | 104
CCOc1ccc2nc(NCCNC(=O)C(C)C)c(C)cc2c1 | -1.8 | i | 0.89 | -7 | -9 | 126 | 105
OCCNc1nc(-c2ccccc2)c2cc(Cl)ccc2n1 | / | i | 0.93 | 3 | -4 | 143 | 105
CCOc1ccc(CNC(=O)c2ccc(Sc3ccc(Cl)cc3)c(NC(C)=O)c2)cc1OC | -0.5 | i | 0.83 | 14 | -33 | 118 | 107
COC(=O)c1cc(NC(=O)c2nn(C)c(=O)c3ccccc23)cc(C(=O)OC)c1 | / | i | 0.9 | 5 | / | / | 102
Cc1ccc2c(c1)CN1CN2Cc2cc(C)ccc21 | -1.4 | i | 0.87 | 1 | / | / | 101
COc1ccc(-c2cc(C(F)(F)F)n3ncc(C(=O)O)c3n2)cc1OC | -0.5 | i | 1 | -16 | 0 | 110 | 105
Cc1cc(-n2nc(C)cc2C)n2nc(C)c(-c3ccc(Cl)cc3)c2n1 | -0.6 | i | 1 | 3 | -453 | 88 | 93
COc1ccc(OCCC(=O)N2CCCCC2)cc1 | -1.0 | / | / | -5 | 45 | 121 | 103

Following part:
SMILES | GALR2 agonist | HSV replic up | HSV replic up primary fold | PKD1 kinase inh | Insulin prom inh | Insulin prom inh cell count | RGS16-Gao HTS
CC(Oc1ccc(Cl)cc1)c1ccn[nH]1 (centres undefined) | / | i | 0.96 | 2 | -20 | 111 | 103
COc1ccc(C(=O)Nn2c(SCC(=O)c3ccc(Cl)cc3)nc3ccccc3c2=O)cc1 | -1.6 | i | 0.98 | 4 | 83* | 64* | 100
Cc1ccc2nc(CSc3nc(C)ccc3C#N)[nH]c2c1 | 0.3 | i | 0.95 | 2 | 47 | 68 | 102
O=C(CCCc1ccccc1)Nc1cccc2c1CCCC2 | -1.1 | i | 0.9 | -9 | -13 | 73 | 97
COc1cccc(C2CC(c3c(F)cccc3Cl)n3nc(N)nc3N2)c1 (centres undefined) | -3.6 | i | 1.1 | 6 | 2 | 119 | 106
CC1(C)Cc2cccc(C(=O)NCc3ccco3)c2O1 | / | i | 1 | / | / | / | 97
CCN(CC)c1ccc(NC(=O)c2c(OC)cccc2OC)c(C)c1 | -2.0 | i | 0.75 | 6 | 5 | 93 | 106
CC(C)(C)C1CCC(=NNC(=O)c2ccc(Br)o2)CC1 (centres undefined) | -0.6 | i | 0.93 | -8 | -93 | 127 | 96
CCCCCCCCS(=O)c1sc2nc3c(cc2c1N)CCCC3 (centres undefined) | 1.7 | i | 1.2 | 3 | 50 | 41 | 96
COc1cccc(C(=O)CSc2nnc(CNc3nc(-c4ccccc4)cs3)n2C)c1 | -2.2 | i | 0.94 | 7 | -79 | 121 | 109
Cc1cc([N+](=O)[O-])ccc1NC(=O)CSc1nccc(=O)[nH]1 | / | i | 1 | 2 | 38 | 75 | 103
O=C(c1ccccc1NS(=O)(=O)c1ccc2c(c1)OCCO2)N1CCOCC1 | -0.6 | i | 0.84 | 2 | 69 | 85 | 110
O=C(Nc1cccc(F)c1)c1ccc(Br)o1 | -3.2 | i | 1 | 1 | -27 | 62 | 73
COc1cc(NC(=O)C2CCN(S(=O)(=O)c3cccnc3)CC2)cc(OC)c1OC | -2.2 | i | 0.79 | -1 | -3 | 39 | 102
CC(=O)Nc1cnc(NC(=O)c2cccc(F)c2)cc1C | 0.2 | i | 0.86 | -15 | 8 | 114 | 98
O=C(O)Cn1nnc2ccccc21 | / | i | 1.1 | / | / | / | 106
Cc1ccc(-c2ccc(=O)n(CCC(=O)NCc3ccccn3)n2)cc1 | -1.4 | i | 0.95 | -6 | -19 | 80 | 286
CC(C)(C)CC(C)(C)NCC(=O)Nc1c2c(nc3ccccc13)CCC2 | / | i | 0.9 | -4 | / | / | 99
CN(c1ccccc1)S(=O)(=O)c1ccc(Cl)c(C(=O)OCC(N)=O)c1 | / | i | 0.93 | -4 | / | / | 96
COc1ccc(Cl)cc1NC(=O)c1cc(-c2cc(C)ccc2O)n[nH]1 | / | i | 0.82 | / | / | / | 101
COc1ccc(/C=N/N=C/c2c[nH]c(=O)c(C#N)c2Nc2ccccc2)cc1 | -0.7 | i | 1.1 | 5 | / | / | 54
CCOC(=O)C1(CCCc2ccccc2)CCN(C(=O)c2cncs2)CC1 | / | i | 1.2 | -3 | / | / | 88
O=S(=O)(c1ccc(Cl)cc1)N1CCC(n2cccc2)CC1 | / | i | 0.99 | / | / | / | 101
CC(C)CNC(=S)N1CCC(c2nc(-c3ccc(F)cc3)no2)CC1 | / | i | 0.84 | -3 | 7 | 123 | 102
COc1ccc(-c2nc(N3CCCCCC3)sc2C(=O)c2ccccc2)cc1 | 0.8 | i | 1 | 14 | / | / | 99

More records
SMILES | GALR2 agonist | HSV replic up | HSV replic up primary fold | PKD1 kinase inh | Insulin prom inh | Insulin prom inh cell count | RGS16-Gao HTS
CCP(=O)(CC)c1cccc(N)c1 | 0.5 | i | 1.2 | -2 | 64 | 59 | 100
CSc1nncc(/C(C)=N\Nc2cccc(C)c2)n1 | -1.4 | i | 0.99 | 9 | / | / | 98
CCc1ccc(OCC(=O)Nc2ncn[nH]2)cc1 | / | i | 0.91 | 4 | 24 | 167 | 94
Nc1cnn(Cc2ccc(F)cc2)c1 | / | i | 1.1 | 4 | / | / | 93
COc1ccc(NC(=O)CC2C(=O)NCCN2C(=O)c2ccccc2)cc1 (centres undefined) | / | i | 1.1 | / | / | / | 99
CCCC(C)C(=O)Nc1cc([N+](=O)[O-])ccc1Cl (centres undefined) | / | i | 0.99 | -3 | 18 | 125 | 102
O=C(/C=C/c1ccc(Cl)cc1)N1CCN(c2c(Cl)cccc2[N+](=O)[O-])CC1 | -1.9 | i | 1.1 | 2 | 50 | 107 | 100
CCOC(=O)c1c(N=CN(C)C)c(C#N)n2c1CCC2 | -1.6 | i | 0.94 | -6 | / | / | 96

Random draw from the library (roughly 1.3% active in at least one column).
